Vaccinia stage = blocks a specific stage of Vaccinia orthopoxvirus infection, primary screen, cell-based, single point. AID 1053133, 2014. activity change (mCherry), % (concentration not given with the values). 89,000 compounds, 0.01% hits. Vaccinia-infected cells, mCherry/Venus stage reporter fluorescence; active compounds read low; some inactives read as strong as hits;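 active = mCherry past -33% and 40 or more points under the early reporter, replicates agreeing; inconclusive = past -33% without that gap or agreement; tested in A549 cells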;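 note: scaled between vehicle wells and reference inhibitor wells; 23 nL library stock went into each well; one replicate is shown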
Vaccinia stage Venus = recorded beside Vaccinia stage, whose call it bears; activity change (Venus), %; measured here: Venus reporter, other viral stage;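 negative = less Venus signal; first of two replicates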
* = called active by the depositor; ? = inconclusive; . = no result given. The list is partial; rates above refer to the full screens.

SMILES | Vaccinia stage | Vaccinia stage Venus
Cc1noc(C)c1NC(=O)Nc1ccc2c(c1)CC(=O)N([C@@H](C)CO)C[C@H](C)[C@H](CN(C)C(=O)Nc1ccc(C(F)(F)F)cc1)O2 | 11 | 7
C[C@@H]1CN([C@H](C)CO)C(=O)Cc2cc(NC(=O)C3CC3)ccc2O[C@@H]1CN(C)CC1CC1 | 6 | 2
C[C@@H]1CN([C@@H](C)CO)C(=O)c2cccc(NC(=O)Nc3ccccc3)c2O[C@H]1CN(C)Cc1ccc(Cl)c(Cl)c1 | ? | .
C[C@@H]1CN([C@H](C)CO)S(=O)(=O)c2ccc(C#CC(C)(C)O)cc2O[C@H]1CN(C)C(=O)CC1CC1 | 3 | 1
O=C(Nc1ccc(-c2ccccc2)cc1)[C@@H]1[C@@H](CO)[C@@H]2Cn3c(cccc3=O)[C@H]1N2Cc1ccncc1 | 24 | 18
O=S(=O)(c1ccc(F)cc1)N1CCCCN2[C@H](C1)[C@H](c1ccc(C3=CCCCC3)cc1)[C@@H]2CO | -11 | -22
COC(=O)C[C@@H]1CC[C@@H]2[C@H](COc3ccc(NC(=O)c4cccc(OC)c4)cc3C(=O)N2C)O1 | 4 | -3
CCCNC(=O)N[C@@H]1C=C[C@@H](CC(=O)NC2CCC2)O[C@H]1CO | 8 | 5
O=C(c1ccc(F)cc1)N1CC(=O)N2[C@H](CO)[C@@H](c3ccc(-c4ccccc4F)cc3)[C@H]2C1 | ? | .
C[C@H](CO)N1C[C@H](C)[C@H](CN(C)C(=O)Nc2ccc(F)cc2)Oc2ccc(NS(=O)(=O)c3ccc(Cl)cc3)cc2CC1=O | 13 | 8
CNC[C@@H]1Oc2ccc(NS(=O)(=O)c3cccs3)cc2CC(=O)N([C@@H](C)CO)C[C@H]1C | -8 | -1
C[C@@H]1CN([C@H](C)CO)C(=O)c2cccc(NC(=O)C3CC3)c2O[C@@H]1CN(C)Cc1ccc(C(=O)O)cc1 | 8 | 9
O=C([C@H]1[C@H](CO)[C@H]2Cn3c(ccc(C4=CCCC4)c3=O)[C@@H]1N2C(=O)c1ccccc1)N1CCOCC1 | 0 | 1
C[C@H](CO)N1C[C@H](C)[C@H](CN(C)Cc2ccccn2)Oc2ncc(C#CCc3ccccc3)cc2C1=O | -9 | -8
COCC(=O)N(C)C[C@H]1Oc2ncc(Br)cc2C(=O)N([C@H](C)CO)C[C@H]1C | 8 | 7
C[C@H](CO)N1C[C@H](C)[C@H](CN(C)Cc2ccc3c(c2)OCO3)Oc2ccc(NS(=O)(=O)c3ccc(Cl)cc3)cc2C1=O | -7 | -11
Cc1ccccc1CN(C)C[C@@H]1OCc2cn(nn2)CCCC(=O)N([C@@H](C)CO)C[C@H]1C | -5 | -1
O=C(CCN1CCCCC1)N[C@@H]1CC[C@@H](CCn2cc(-c3ccccc3)nn2)O[C@@H]1CO | 2 | 9
COc1ccc(S(=O)(=O)Nc2ccc3c(c2)CC(=O)N([C@H](C)CO)C[C@@H](C)[C@H](CN(C)C(=O)NC(C)C)O3)cc1 | 7 | 11
CC(C)NC(=O)N(C)C[C@H]1OCCCC[C@H](C)Oc2ccc(N(C)C)cc2C(=O)N([C@@H](C)CO)C[C@@H]1C | 17 | 14
COc1ccc(CNC(=O)C[C@@H]2C[C@H]3c4cc(NC(=O)C5CCC5)ccc4O[C@H]3[C@@H](CO)O2)cc1 | -6 | -7
COc1ccc2c3c([nH]c2c1)[C@@H](CO)N(C(=O)Cc1ccccc1)CC31CCN(C)CC1 | -8 | -13
COc1ccc(NC(=O)N(C)C[C@@H]2OCCCC[C@H](C)Oc3ccc(NC(=O)C4CCCCC4)cc3C(=O)N([C@@H](C)CO)C[C@@H]2C)cc1 | -30 | -28
Cc1cccc(S(=O)(=O)N2CCCCN3[C@H](CO)[C@H](c4ccc(-c5cccnc5)cc4)[C@H]3C2)c1 | -35 | -32
C[C@@H]1CN([C@H](C)CO)C(=O)c2cc(NC(=O)C3CCCCC3)ccc2O[C@@H](C)CCCCO[C@@H]1CN(C)CC1CCCCC1 | ? | .

Full records, looked up by structure. Order of screens: Vaccinia stage | Vaccinia stage Venus
`COc1ccc2c3c([nH]c2c1)[C@@H](CO)N(C(=O)Cc1ccccc1)CC31CCN(C)CC1` across the screens: -8 | -13
`O=C(CCN1CCCCC1)N[C@@H]1CC[C@@H](CCn2cc(-c3ccccc3)nn2)O[C@@H]1CO` across the screens: 2 | 9

A run of entries from the list above, for reference:
SMILES | Vaccinia stage | Vaccinia stage Venus
Cc1noc(C)c1NC(=O)Nc1ccc2c(c1)CC(=O)N([C@@H](C)CO)C[C@H](C)[C@H](CN(C)C(=O)Nc1ccc(C(F)(F)F)cc1)O2 | 11 | 7
C[C@@H]1CN([C@H](C)CO)C(=O)Cc2cc(NC(=O)C3CC3)ccc2O[C@@H]1CN(C)CC1CC1 | 6 | 2
C[C@@H]1CN([C@@H](C)CO)C(=O)c2cccc(NC(=O)Nc3ccccc3)c2O[C@H]1CN(C)Cc1ccc(Cl)c(Cl)c1 | ? | .

(next part)
SMILES | Vaccinia stage | Vaccinia stage Venus
CC=Cc1ccc2n(c1=O)C[C@H]1[C@H](CO)[C@@H](C(=O)NC3CCC3)N(CCC)[C@@H]21 (mixture of isomers) | 18 | 14
C[C@H]1CN([C@@H](C)CO)C(=O)c2cc(NC(=O)Nc3cccc4ccccc34)ccc2O[C@H]1CN(C)Cc1ccc2c(c1)OCO2 | -8 | -11
C[C@H](CO)N1C[C@H](C)[C@H](CN(C)Cc2ccc(Oc3ccccc3)cc2)Oc2c(NC(=O)c3nc4ccccc4s3)cccc2C1=O | 5 | -3
C[C@@H]1CCCCO[C@H](CN(C)C(=O)c2ccccc2)[C@H](C)CN([C@H](C)CO)C(=O)c2cc(NS(=O)(=O)c3cn(C)cn3)ccc2O1 | 38 | 36
COc1ccc2c3c(n(C)c2c1)[C@H](CO)N(C(=O)C1CC1)CC31CCN(Cc2cccc(F)c2)CC1 | ? | .
C[C@@H]1CN([C@@H](C)CO)C(=O)c2cccc(NC(=O)C3CCCCC3)c2O[C@H]1CN(C)C(=O)Nc1ccccc1 | 5 | 6
COc1ccc2c3c([nH]c2c1)[C@@H](CO)N(S(C)(=O)=O)CC31CN(C(=O)c2ccncc2)C1 | 25 | 7
CO[C@H]1CN(C)C(=O)c2cc(NC(=O)C3CCC3)ccc2OC[C@H](C)N(C(=O)CN(C)C)C[C@H]1C | 9 | 9
COc1ccc(CN2CC3(CN(C(=O)c4ccccc4)C3)c3c([nH]c4cc(OC)ccc34)[C@H]2CO)cc1 | 6 | 2
CN(C)CCCNC(=O)C[C@@H]1CC[C@H](NS(=O)(=O)c2ccc(F)cc2)[C@H](CO)O1 | 4 | -2
COc1ccc(S(=O)(=O)Nc2ccc3c(c2)CC(=O)N([C@H](C)CO)C[C@H](C)[C@H](CN(C)CC2CC2)O3)cc1 | -1 | 5
O=C(NC1CCCC1)[C@H]1[C@H](CO)[C@H]2Cn3c(ccc(C4=CCCC4)c3=O)[C@@H]1N2CC1CC1 | 12 | 13
CN1C(=O)c2cc(NC(=O)c3cnccn3)ccc2OC[C@@H]2O[C@@H](CC(=O)NCC3CC3)CC[C@H]21 | 15 | 2
O=C(Nc1ccc(C(F)(F)F)cc1)N[C@H]1CC[C@@H](CCNC(=O)c2ccccc2F)O[C@H]1CO | -11 | -7
COc1cccc(-c2ccc3c(c2)O[C@H](CN(C)C(=O)C2CC2)[C@@H](C)CN([C@@H](C)CO)S3(=O)=O)c1 | -17 | -15
C[C@@H]1CN([C@@H](C)CO)S(=O)(=O)c2ccc(C#Cc3ccc(F)cc3)cc2O[C@@H]1CN(C)S(=O)(=O)c1ccc(F)cc1 | -31 | -23
CCCC#Cc1ccc([C@H]2[C@H](CO)N3CCCCN(CC4CCOCC4)C[C@@H]23)cc1 | -16 | -8
C[C@H]1CN([C@@H](C)CO)C(=O)c2cc(C#CCN(C)C)cnc2O[C@@H]1CN(C)S(=O)(=O)c1ccccc1 | -1 | 5
CO[C@@H]1CN(C)C(=O)c2cc(NC(=O)C3CC3)ccc2OC[C@@H](C)N(Cc2cc(F)ccc2F)C[C@H]1C | -10 | -3
CCNC(=O)[C@@H]1[C@@H](CO)[C@@H]2Cn3c(ccc(-c4ccncc4)c3=O)[C@@H]2N1Cc1ccc2c(c1)OCO2 | 12 | 13
C[C@@H]1CN([C@H](C)CO)C(=O)Cc2cc(NS(=O)(=O)c3cccs3)ccc2O[C@H]1CN(C)C(=O)Nc1ccc(C(F)(F)F)cc1 | 12 | 8
COCC(=O)Nc1ccc2c(c1)OC[C@@H](C)N(Cc1cocn1)C[C@@H](C)[C@@H](OC)CN(C)C2=O | 6 | 5
O=C(Nc1ccccc1F)N[C@H]1CC[C@@H](CCNC(=O)C2CCC2)O[C@H]1CO | -1 | 1
C[C@@H]1CN([C@H](C)CO)C(=O)c2cc(NS(=O)(=O)c3ccc(F)cc3)ccc2O[C@@H](C)CCCCO[C@@H]1CN(C)Cc1ccncc1 | -20 | -14
Cc1ccc(S(=O)(=O)NCC[C@H]2CC[C@@H](NC(=O)c3cnccn3)[C@@H](CO)O2)cc1 | -13 | -7

Following part:
SMILES | Vaccinia stage | Vaccinia stage Venus
C[C@@H]1CN([C@@H](C)CO)S(=O)(=O)c2ccc(C#Cc3cccc(F)c3)cc2O[C@@H]1CN(C)S(=O)(=O)c1ccccc1F | ? | .
CC(C)NC(=O)N[C@H]1CC[C@@H](CCNC(=O)C2CCC2)O[C@H]1CO | 8 | 4
CCCNC(=O)C[C@H]1C[C@H]2c3cc(NC(=O)CC4CC4)ccc3O[C@H]2[C@@H](CO)O1 | 8 | 10
C[C@H]1CN([C@@H](C)CO)C(=O)Cc2cc(NC(=O)Nc3ccccc3)ccc2O[C@H]1CN(C)Cc1ccc2c(c1)OCO2 | ? | .
O=C(c1cc2c(c(-c3cccc(Br)c3)n1)[C@H](CCO)NC2)N1CCCCC1 | 19 | 38
COCC(=O)Nc1ccc2c(c1)OC[C@H](C)N(C(=O)Cc1ccccn1)C[C@@H](C)[C@@H](OC)CN(C)C2=O | 8 | 8
CO[C@@H]1CN(C)C(=O)c2cc(NS(=O)(=O)c3ccccc3C)ccc2OC[C@H](C)N(S(C)(=O)=O)C[C@H]1C | 17 | 7
C[C@@H]1CN([C@H](C)CO)C(=O)c2cc(NC(=O)NC3CCCCC3)ccc2O[C@@H](C)CCCCO[C@H]1CN(C)Cc1ccc2c(c1)OCO2 | ? | .
CN(C)C(=O)c1cccc(-c2ccc3c(c2)[C@@H]2[C@@H](CCN2C(=O)C2CCC2)[C@@H](CO)N3)c1 | ? | .
O=C(c1ccc(F)cc1)N1CCCCN2[C@H](CO)[C@H](c3ccc(C#CC4(O)CCCC4)cc3)[C@H]2C1 | -25 | -23
C[C@@H]1CN([C@H](C)CO)C(=O)c2cc(-c3cccnc3)cnc2O[C@@H]1CN(C)C(=O)C1CC1 | 9 | 0
O=C(c1ccccn1)N1CC[C@@H]2[C@H](CO)Nc3ccc(-c4ccccc4)cc3[C@@H]21 | ? | .
COc1ccccc1NC(=O)N[C@H]1C=C[C@H](CC(=O)N[C@H](C)c2ccccc2)O[C@H]1CO | -20 | -4
CN1c2ccc(-c3ccc(F)cc3)cc2[C@@H]2[C@@H](CCN2C(=O)c2ccccn2)[C@H]1CO | 0 | -5
O=C(C[C@@H]1CC[C@@H](NC(=O)C2CCC2)[C@H](CO)O1)NCC1CC1 | 1 | 5
O=C(c1ccncc1)N1C[C@H]2[C@@H](c3ccccc31)[C@@H](CO)N2C(=O)Nc1cccc(F)c1 | 11 | 11
CCCNC(=O)C[C@@H]1CC[C@@H]2[C@H](COC[C@H](O)CN2C(=O)Nc2cccc(Cl)c2)O1 | 5 | 3
C[C@H]1CN([C@@H](C)CO)C(=O)c2cccc(NS(=O)(=O)c3cccs3)c2O[C@H]1CN(C)S(=O)(=O)c1ccccc1 | -9 | -9
CO[C@@H]1CN(C)C(=O)c2ccc(NS(=O)(=O)c3ccccc3C)cc2OC[C@H](C)NC[C@H]1C | 7 | 9
CN(C)CC(=O)Nc1ccc2c(c1)[C@H]1C[C@@H](CC(=O)NCc3cccc(F)c3)O[C@H](CO)[C@H]1O2 | 14 | 3
CC(C)NC(=O)N(C)C[C@H]1Oc2ccc(NC(=O)Cc3cn(C)c4ccccc34)cc2CC(=O)N([C@@H](C)CO)C[C@@H]1C | -3 | -5
O=C(C[C@H]1CC[C@H]2[C@@H](COC[C@@H](O)CN2C(=O)Nc2cc(Cl)cc(Cl)c2)O1)N1CCCCC1 | -23 | -22
C[C@@H]1CN([C@H](C)CO)C(=O)c2cc(-c3ccncc3)cnc2O[C@@H]1CN(C)C(=O)c1ccc(F)cc1 | 23 | 11
CN(C[C@@H]1[C@@H](c2ccccc2)[C@H](CO)N1C(=O)C1CCC1)C(=O)c1ccccn1 | 15 | 9
CO[C@H]1CN(C)C(=O)c2ccc(NC(=O)C3CCCC3)cc2OC[C@H](C)N(CC2CC2)C[C@@H]1C | 22 | 25
N#Cc1ccc(-c2ccc([C@@H]3[C@@H](CO)N4C(=O)CNC[C@@H]34)cc2)cc1 | 15 | 20
O=C(c1cnccn1)N1CC(=O)N2[C@H](CO)[C@H](c3ccc(C#CCC4CCCC4)cc3)[C@@H]2C1 | -4 | -6
C[C@H]1CN([C@@H](C)CO)C(=O)c2cc(NC(=O)CCN3CCOCC3)ccc2O[C@H]1CN(C)S(=O)(=O)c1ccc(F)cc1 | -4 | 1

2 entries drawn at random from the list so far, as already listed:
SMILES | Vaccinia stage | Vaccinia stage Venus
Cc1ccccc1CN(C)C[C@@H]1OCc2cn(nn2)CCCC(=O)N([C@@H](C)CO)C[C@H]1C | -5 | -1
C[C@H](CO)N1C[C@H](C)[C@H](CN(C)Cc2ccccn2)Oc2ncc(C#CCc3ccccc3)cc2C1=O | -9 | -8
